Beta2AR agonist: activates human beta-2 adrenergic receptor causing internalization; Am2.2-beta2AR cells, FAP receptor internalization, flow cytometry; reference of the scale not given here; response, % (concentration not given with the values); actives 0.43% (n = 340,000); AID 504454;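 active = response above a set limit, near 3 SD of response in nonfluorescent compounds, cut at about 42% in these data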;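 note: stock transfer was 100 nL into about 11 µL; a reference agonist was the positive control; negative values mostly stem from fluorescent compounds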
Target sequence (P07550 whole entry, looked up): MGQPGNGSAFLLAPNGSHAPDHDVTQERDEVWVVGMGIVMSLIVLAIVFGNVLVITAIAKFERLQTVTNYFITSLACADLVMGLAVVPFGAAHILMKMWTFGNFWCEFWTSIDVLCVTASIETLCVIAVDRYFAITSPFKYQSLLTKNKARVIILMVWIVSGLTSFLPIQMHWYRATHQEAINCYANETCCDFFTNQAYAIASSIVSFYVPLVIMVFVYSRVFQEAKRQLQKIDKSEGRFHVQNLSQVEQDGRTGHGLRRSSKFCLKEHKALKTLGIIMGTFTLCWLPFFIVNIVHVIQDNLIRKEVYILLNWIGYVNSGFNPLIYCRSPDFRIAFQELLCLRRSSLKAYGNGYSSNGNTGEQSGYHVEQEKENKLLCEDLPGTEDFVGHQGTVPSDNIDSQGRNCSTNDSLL
Beta apoptosis: beta cell apoptosis inhibition. AID 435005. protection from apoptosis, % (no concentration beside the values). INS-1E cytokine-induced death, ATP luminescence, 48 h; percent of positive-control rescue, neutral wells zero. actives 0.8% (n = 300,000);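 active = all replicates at 75% or more, or half of them and the mean; inconclusive = half reach 75% but not the mean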;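 note: 0% = cytokine-treated negative control wells and 100% = positive control rescue; higher means more ATP so stronger rescue from cytokine killing; wells of about 40 µL received 100 nL stock; the first replicate is given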
LANA-H2B inh: blocks KSHV LANA binding to histone H2A/H2B | cell-free LANA-H2A/H2B peptide, fluorescence polarization | actives 0.6% (n = 320,000) | AID 2629 | inhibition, % (concentration not given with the values); in the data active = inhibition mostly above about 10%, no sharp cut-off; inactive = mostly below about 6.7%;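 note: stock transfer was 7.5 nL into about 10 µL; 0% = median of vehicle wells and 100% = median of positive control wells; one replicate is shown; the record names a cut of 25% in any replicate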
Bfl-1 A1 inh: inhibitors of the anti-apoptotic protein A1, read as caspase activation; MEF A1-2A-BIM cells, Caspase-Glo 3/7 luminescence, 3 h; percent of clofoctol response, vehicle zero; caspase activation, % (no concentration beside the values); actives 0.066% (n = 330,000); AID 2462;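 active = over half of replicate activation scores above 10%, or exactly half above 10 with the replicate mean above 10; inconclusive = replicate mean below 10 yet half the replicates above 10; inactive = over half of replicates below 10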;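 note: wells of about 30 µL received 50 nL stock; many hits fall short of the cut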
T cruzi repl: blocks replication of Trypanosoma cruzi | T. cruzi beta-gal in NIH3T3, luminescence, 90 h | inhibition, % (test concentration not listed) | actives 1.4% (n = 300,000) | AID 1885;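 active = mean inhibition across valid replicates above about 55%, limit read from the data; inconclusive = mean below that limit but half or more replicates reach it; inactive = mean below it, under half of replicates reach it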;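 note: signal also drops with host cell toxicity which is not excluded here; 0% = plate median of DMSO wells and 100% = zero luminescence signal; higher percent means less beta-gal luminescence so fewer parasites; stock transfer was 50 nL into about 50 µL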
RanGTP-Impb inh: disruptors of Ran-importin-beta complex formation – biochemical, FRET, CFP-Ran, YFP-importin-beta, homogeneous, primary screen; actives 1.1% (n = 300,000); inhibition, % (concentration not given with the values); cell-free CFP-Ran/YFP-importin-beta FRET ratio;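 active = most replicates above 15%; inconclusive = exactly half above 15%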;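 note: 0% = DMSO wells and 100% = Ran loaded with GDP instead of GTP; wells of about 40 µL received 100 nL stock; the first replicate is given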
UCH37 DUB inh: blocks the human deubiquitinase UCH37 | Q9Y5K5 | purified proteasome/UCH37, Ub-AMC cleavage fluorescence | inhibition, % (test concentration not listed) | actives 0.33% (n = 330,000) | AID 588478;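 active = mean of two replicates above 20%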;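 note: 0% = compound-free wells with enzyme and 100% = wells lacking proteasome; stock transfer was 100 nL into about 20 µL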
Target sequence (Q9Y5K5 whole entry, looked up): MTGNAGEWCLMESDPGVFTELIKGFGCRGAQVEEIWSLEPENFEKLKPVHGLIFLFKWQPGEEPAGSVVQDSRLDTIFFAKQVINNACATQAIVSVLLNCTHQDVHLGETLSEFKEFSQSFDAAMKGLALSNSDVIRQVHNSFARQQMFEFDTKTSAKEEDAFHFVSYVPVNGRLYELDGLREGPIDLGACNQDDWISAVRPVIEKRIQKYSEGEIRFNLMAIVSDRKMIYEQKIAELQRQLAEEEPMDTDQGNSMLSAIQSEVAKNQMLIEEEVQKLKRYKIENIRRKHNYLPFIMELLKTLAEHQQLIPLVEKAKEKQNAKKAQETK
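Material: Human UCH37 enzyme supplied as purified proteasome complex | Schedule: 30 min preincubation with enzyme, 25 min cleavage at room temperature | Detection: AMC fluorescence 355/460 nm | Measure: % inhibition of Ub-AMC cleavage fluorescence | Controls: Wells without proteasome as full block, compound-free enzyme plus substrate as uninhibited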
Calb FLC: affects C. albicans growth with fluconazole; C. albicans CaCi-2 (fluconazole-resistant clinical isolate) + fluconazole, Alamar Blue growth, 48 h; growth inhibition, % (no concentration beside the values); actives 0.57% (n = 300,000);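 active = most replicates above 75%; inconclusive = exactly half above 75%; inactive = most below 75%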;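 note: all wells also contain fluconazole at 8 µg/ml as a sub-toxic cotreatment; 0% = median of DMSO wells and 100% = median of geldanamycin control wells; wells of about 8 µL received 7.5 nL stock; the first replicate is given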
The depositor's hits bear a star; ? = inconclusive; · = no result given.

Fields: Beta2AR agonist	Beta apoptosis	LANA-H2B inh	Bfl-1 A1 inh	T cruzi repl	RanGTP-Impb inh	UCH37 DUB inh	Calb FLC
- Cc1ccc(S(=O)(=O)N(C)c2ccc(OCC(=O)Nc3cccc(-n4cnnn4)c3C)cc2)cc1
 : 3	-5	-3.7	-0.3	4	-0.2	2.2	0
- Cn1c(=O)[nH]c(=O)c2c1nc(SCC(=O)O)n2Cc1ccccc1
 : 5	-4	-6.2	-0.1	-13	2.5	4.2	0
- CCC(C)N(C)C(=O)c1cc2ccccc2c(-c2ccccc2Cl)n1 (stereo unspecified)
 : 16	-12	-2.2	?	8	0.7	-0.3	·
- CC(/C=C/c1ccccc1)=N/O
 : 0	-7	-3.5	1.1	-5	-3.5	·	-10
- COc1ccccc1CNC(=O)CCNS(=O)(=O)c1cc(Br)cnc1N
 : -9	-9	2.6	0.6	16	1.9	-6.2	-15
- COc1cc(OC)cc(C(=O)N[C@H](C(=O)NCc2cccs2)C(C)C)c1
 : -2	1	0.5	1.4	-3	-20	1.3	-39
- C=CCn1c(SCC(=O)Nc2cc(C)nn2-c2ccccc2)nnc1C1CCCCC1
 : -2	1	-3.0	2.2	10	3.8	3.8	-6
- Cc1ccc(S(=O)(=O)N(CC(=O)Nc2ccccc2C(=O)O)c2ccc(Cl)cc2)cc1
 : 5	-1	1.8	0.4	-10	-1.5	2.3	-5
- Cc1ccc(OC(=O)c2ccccc2P(=O)(O)O)cc1
 : 3	-7	-5.2	0.9	-2	3.1	2.7	-1
- O=C(OC(C(=O)NCc1ccccc1)c1ccccc1F)c1ccco1 (stereo unspecified)
 : -1	-4	0.8	-0.4	-5	-0.9	1.8	-2
- C=CCN(c1ccc(F)cc1)S(=O)(=O)c1cc(C(=O)NC2CCC(O)CC2)ccc1Cl (stereo unspecified)
 : 14	1	1.2	-1.3	·	·	2.2	·
- Cc1ccc(N=Nc2ccc(O)c3ncccc23)cc1C
 : 2	-6	-12	-4.4	66*	?	2.0	9
- CCC(=O)NC(=S)Nc1cccc(NC(=O)c2ccccc2C)c1
 : 13	1	2.4	-0.3	0	3.0	0.7	12
- COc1ccc(Cc2nc(C(=O)Nc3ccc(Cl)cc3)cs2)cc1
 : 0	-1	-2.8	-1.6	8	2.6	3.0	0
- O=C(NC1CCCCC1)c1ccc(CNc2c(N3CCOCC3)c(=O)c2=O)cc1
 : -8	1	-0.2	1.5	-3	?	4.1	11
- CCn1c(C)nc([N+](=O)[O-])c1C(=O)O
 : -8	-5	-4.6	0.7	0	-2.1	-0.2	-14
- COc1ccc(N2CCN(Cc3nc(N)nc(N4CCCc5ccccc54)n3)CC2)cc1
 : 32	2	0.7	0.6	7	5.7	0.0	4
- COc1cc(C(CCN2CCCC2)c2c(OC)cc(OC)c3c(C)cc(=O)oc23)cc(OC)c1OC (stereo unspecified)
 : 2	-3	-3.7	0.8	36	6.6	-2.0	-4
- CC1CCCCC1NC(=O)COC(=O)c1ccc(S(=O)(=O)N2CCOCC2)cc1 (stereo unspecified)
 : 10	-4	0.2	0.2	-10	-2.2	6.0	2
- Cc1ccc(Cl)c(OCC(=O)NCC(c2cccs2)N2CCOCC2)c1 (stereo unspecified)
 : 1	·	5.2	-1.2	6	1.2	3.0	12
- CSCC(=O)N1CCCC(CO)(Cc2ccccc2C)C1 (stereo unspecified)
 : 0	-4	4.8	2.3	-3	0.8	3.0	-1
- Cc1ccc(NC(=O)CC(N)=S)cc1
 : 1	-11	0.2	0.4	4	-2.0	-1.9	3
- CC(C)(C)c1ccc(Cn2cnc(-c3ccc([N+](=O)[O-])cc3)c2)cc1
 : 7	30	5.2	-0.4	31	5.3	2.5	1
- CC1CCCCC12NC(=O)N(CC(=O)Nc1ccc(N3CCOCC3)cc1)C2=O (stereo unspecified)
 : 0	8	-1.6	0.8	0	-4.0	4.7	3
- COc1cc(OC)c(NC(=O)CCNC(=O)Cn2cnc3ccccc3c2=O)cc1Cl
 : -8	-6	-19	-0.2	-7	-0.7	0.1	3
- CN(C)C1(CNC(=O)c2cccc(S(=O)(=O)NCc3ccccc3)c2)CCCCC1
 : -16	-6	1.4	0.3	·	·	4.0	·
- COCCNc1nc(Cl)c(C#N)s1
 : 3	-6	-6.4	0.3	-11	?	2.8	20
- CC1CCN(C(=O)C2CCN(S(=O)(=O)c3ccc(-n4cnnn4)cc3)CC2)CC1
 : -4	4	3.2	0.5	-6	-2.6	3.0	-4
- O=C(NCc1ccco1)c1cnn2c(C(F)(F)F)cc(-c3ccco3)nc12
 : 0	1	-4.3	0.1	9	8.4	-108	0
- CCn1c(SCC(=O)NCCc2ccc(F)cc2)nnc1-c1cccs1
 : -14	6	0.6	1.0	-8	-6.6	0.8	-5
- COc1ccc(N(C)S(=O)(=O)c2cccc(C(=O)Nc3nc4ccccc4[nH]3)c2)cc1
 : -4	26	-9.4	-0.2	-4	-0.6	-6.8	6
- Nc1ccc2nc(-c3cccnc3)[nH]c2c1
 : 12	1	0.0	-1.0	-1	6.9	7.8	1
- CC(=O)c1c(C)c(C)c2n1CCn1c(C)ccc1-2
 : 8	2	-0.1	-0.1	-1	0.5	4.0	0
- CCOc1cc(N2CCOCC2)c(OCC)cc1NC(=O)c1ccc2ncsc2c1
 : 6	-3	-8.0	0.5	·	·	1.6	·
- O=C(Cc1cccc2ccccc12)Nc1ccc(Br)cc1C(=O)O
 : -1	4	6.6	0.8	-5	2.4	-1.2	16
- CN(C(=O)Nc1ccc(Cl)cc1)n1cnc2ccccc2c1=O
 : -2	-6	-0.3	0.2	13	0.5	7.0	14
- CC(Oc1ccc2ccc(=O)oc2c1)C(=O)NCCCn1ccnc1 (stereo unspecified)
 : 15	-6	-1.0	0.4	-22	1.8	-17	4
- CCOC(=O)CSc1nc2cc3c(cc2cc1C#N)OCCO3
 : 3	0	-1.4	-0.1	16	6.2	-11	39
- CC(C)c1cccc(C(C)C)c1NC(=O)CNCC(O)c1ccccc1 (stereo unspecified)
 : 7	-7	-2.9	1.1	-9	-0.7	4.1	-5
- O=S(=O)(c1ccc2c(c1)oc1ccccc12)N1CCOCC1
 : -3	·	0.2	-0.3	-1	0.9	0.9	5
- CCOC(=O)Cn1c(-c2cccnc2Cl)nc2ccccc21
 : -1	-3	6.1	1.1	4	-1.3	0.3	4
- CSc1ccc(S(=O)(=O)NCC(=O)OCC(=O)N2CCCCC2C)cc1[N+](=O)[O-] (stereo unspecified)
 : 4	-6	4.8	2.0	-6	0.3	7.2	6
- O=[N+]([O-])c1cccc(/C=N/N2CCN(Cc3ccc(Cl)cc3)CC2)c1
 : 2	0	-9.9	0.4	19	4.7	·	-9
- O=C(NCc1ccccc1)c1ccc(S(=O)(=O)C(F)F)cc1
 : -6	0	-10	0.2	5	2.7	-0.4	-28
- O=C(CN(C(=O)CCC(=O)Nc1nccs1)c1ccccc1F)NCCc1ccccc1
 : -1	-2	-3.6	0.2	1	8.0	6.2	-3
- CC(C)c1ccc(NC(=O)Nc2cc3sccc3n2C)cc1
 : 3	-12	-1.2	0.2	1	1.2	4.2	1
- Cc1ccc2c(c1)c1c(n2CC(O)CN2CCCCCC2)CCCC1 (stereo unspecified)
 : 13	3	-2.0	-0.4	20	-0.8	3.2	-3
- CCN(CC)S(=O)(=O)c1ccc(OCC(=O)NC(=O)Cc2ccccc2)c([N+](=O)[O-])c1
 : -1	-5	-7.6	-0.8	·	·	·	·
- NC(=O)CSc1nnc(-c2ccncc2)n1-c1ccc(Cl)cc1
 : 5	·	1.2	0.1	2	2.7	3.2	-5
- CC(NC(=O)CCNC(=O)c1ccco1)c1ccc(F)cc1 (stereo unspecified)
 : -4	-1	0.6	0.7	-23	4.9	6.1	-18
- CN(C)S(=O)(=O)c1cc(NC(=O)CSc2nn(-c3ccc(Cl)cc3)c(=S)s2)ccc1Cl
 : -1	3	-2.1	-0.7	-6	2.6	3.5	-10
- CN1CCN(c2ccc([N+](=O)[O-])cc2C(=O)c2ccc(Cl)cc2)CC1
 : 14	18	-0.5	-0.1	1	7.5	6.7	-6
- COc1cc(NS(=O)(=O)c2ccc3c(c2)n(C)c(=O)n3C)cc(OC)c1
 : 4	3	2.5	-0.5	-6	2.1	1.9	-4
- COc1ccc(C2(O)C(=O)Nc3ccccc32)cc1 (stereo unspecified)
 : 2	·	1.7	-0.2	-7	0.9	0.5	0
- CN(c1ccccc1)S(=O)(=O)c1cccc(NC(=O)Nc2ccc(Cl)cc2C#N)c1
 : -25	9	-3.0	-0.8	22	-0.2	-19	8
- CCOC(=O)N1CCN(S(=O)(=O)N2CCCC(C(=O)NC(C)c3ccccc3)C2)CC1 (stereo unspecified)
 : -4	1	1.3	-0.2	-7	2.9	1.8	-6
- CCOC(=O)C1=C(COC(=O)c2cc(Br)c(Br)s2)NC(=O)NC1C (stereo unspecified)
 : -3	-2	1.7	-2.0	-9	2.1	1.8	-1
- Cn1c(SCC(=O)NCCc2ccccc2)nc2c([nH]c3ccccc32)c1=O
 : -5	-3	2.2	1.3	13	-1.2	-9.1	30
- CC(=O)N(c1cccc(Br)c1)c1nc(C)cc(C)c1C#N
 : 2	-4	2.1	0.5	4	2.0	3.9	8
- COc1ccc(C(=O)CCC(=O)Nc2cccnc2)cc1
 : 1	2	-2.1	0.7	1	1.0	1.1	0

(listing goes on)
Fields: Beta2AR agonist	Beta apoptosis	LANA-H2B inh	Bfl-1 A1 inh	T cruzi repl	RanGTP-Impb inh	UCH37 DUB inh	Calb FLC
- NNC(=O)/C=C/c1ccc(Cl)cc1Cl
 : 1	3	1.7	-0.3	-14	-15	0.5	?
- O=C(Cn1cnc2ccccc2c1=O)Nc1cccc(-c2nnc3n2CCCCC3)c1
 : 6	-8	-0.9	0.6	4	-2.6	0.7	-3
- CCOC(=O)CSc1ccc(C(=O)NCCN2CCOCC2)cc1[N+](=O)[O-]
 : -1	-3	3.6	0.2	-9	5.1	2.6	-1
- CC(c1ccccc1)C1CC(=O)N(Cc2ccccc2)C1=O (stereo unspecified)
 : -47	-7	1.5	-0.4	9	3.7	3.1	2
- CCn1c(SCC(=O)Nc2oc(-c3ccccc3)c(-c3ccccc3)c2C#N)nnc1-c1ccco1
 : -5	-1	-1.8	0.4	6	7.3	-0.5	3
- Cc1ccc(NC(=S)Nc2ccc3[nH]c(=O)[nH]c3c2)cc1
 : 13	1	0.4	0.8	-20	1.6	1.9	7
- O=[N+]([O-])c1cnccc1Nc1ccc(Cl)cc1
 : -6	-24	5.0	-0.6	2	7.7	5.6	-38
- CC1CN(c2nc3c(c(=O)n(Cc4ccc(Cl)c(Cl)c4)c(=O)n3C)n2C)CC(C)O1 (stereo unspecified)
 : -8	6	-1.4	0.1	21	5.1	1.4	9
- O=C(N/N=C/c1ccc(Cl)c([N+](=O)[O-])c1)c1cc(-c2ccc3c4c(cccc24)CC3)n[nH]1
 : 9	4	-1.4	-0.7	39	-1.0	·	11
- Nc1nc(-c2ccc(Br)cc2)cs1
 : 2	-11	2.2	-2.0	-2	4.4	1.6	7
- CC1(C)CC2CC(C)(CN2S(=O)(=O)c2cccc(C(=O)OCC(=O)NC(N)=O)c2)C1 (stereo unspecified)
 : 0	-3	-2.2	-0.7	-1	6.1	2.9	-2

Assay outcomes from PubChem.

The order is random. Share with any hit: about 4.3%.
